# Hsc70 = small molecules displacing fluorescent ligand from Hsc70 – biochemical, fluorescence polarization, primary screen (AID 568); Hsc70 fluorescence polarization, probe displacement; higher % means a stronger effect; strong numbers were not always called active; one-dose displacement, % at 20 µM; IC50 in µM for titrated hits; 83,000 tested, under 10 active;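 active = displacement above 50% without optical interference and an IC50 on retest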;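 note: ATPase domain with a fluorescein-tagged ATP probe; 0% = vehicle and 100% = excess ADP; read after one hour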
# WNV protease inh = WNV NS2B-NS3 proteinase inhibition; P06935; WNV NS2B-NS3 protease, fluorogenic substrate Ex360/Em465; stronger effect = lower value; z-score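 (tested at a level between 10 and 100 µM)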; 0.18% of 65,000 active; AID 577;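 active = z-score at -3 or under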;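 note: score is relative to mean and spread of the compound wells of a plate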
# Target sequence (P06935 1371-1501 limits assumed): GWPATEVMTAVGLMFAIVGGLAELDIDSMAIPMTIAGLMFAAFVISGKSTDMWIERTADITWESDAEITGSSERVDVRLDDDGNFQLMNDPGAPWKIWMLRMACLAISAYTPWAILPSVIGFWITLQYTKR
# Target sequence (P06935 1502-1679 limits assumed): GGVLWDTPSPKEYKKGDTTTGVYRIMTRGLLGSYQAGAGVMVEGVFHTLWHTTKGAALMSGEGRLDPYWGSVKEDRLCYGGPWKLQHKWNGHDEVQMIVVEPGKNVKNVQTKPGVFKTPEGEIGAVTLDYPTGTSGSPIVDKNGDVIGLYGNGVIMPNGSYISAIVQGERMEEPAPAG
# MT1-MMP reporter = inhibitors of MT1-MMP promoter transcription, cell-based, luciferase reporter, luminescence (AID 618). 0.62% of 87,000 active. calls from a first round at 10 µM; hits with a dose series show EC50 in µM. MT1-MMP promoter luciferase reporter cells, luminescence;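 active = over half of the reporter light lost at 10 µM or EC50 under 50 µM; inactive = the rest and hits that failed the dose series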;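 note: actives suppress MT1-MMP promoter-driven transcription so potencies describe inhibitors; HT1080 fibrosarcoma cells; overnight exposure; toxic or luciferase-blocking compounds were not removed from the actives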
# Numbers without * were called inactive; i = inactive; nt = no result given; + = active, no number.
mol | Hsc70 | WNV protease inh | MT1-MMP reporter
Cc1ccc2c(COn3nnc4ccc(S(=O)(=O)N(C)C)cc43)cc(=O)oc2c1C | 1.2% | 0.35 | i
O=C(Oc1ccnc2cc(Cl)ccc12)N1CCOCC1 | -2.6% | -0.22 | i
COc1ccc(CC(=O)NC2CCN(CC(=O)N3CCCc4ccccc43)CC2)cc1OC | -3.6% | -1.06 | i
Cc1ccc(-c2noc(C3CCCN(C(=O)c4ccc(F)cc4F)C3)n2)cc1 (stereo unspecified) | 6.5% | -0.08 | i
CC(/C=N/Nc1nnc2c(n1)[nH]c1ccccc12)=C\c1ccco1 | 2.6% | nt | i
Cc1c(S(=O)(=O)Nc2cc(Cl)ccc2Cl)c(=O)n(C)c(=O)n1C | -1.8% | -1.93 | i
CCCCNC(=O)CC(NS(=O)(=O)c1ccc(C)cc1)c1ccco1 (stereo unspecified) | -4.4% | 0.43 | i
CCn1c(NCc2ccc(N(C)C)cc2)nc2ccccc21 | 1.4% | -0.63 | i
CCOc1c(Cl)cc(C(=O)NCCN2CCCCC2)cc1Cl | -10.7% | 0.12 | i
COc1ccc2c(C)cc(=O)oc2c1C | -3.2% | -1.07 | i
COc1ccc(C(C)=O)cc1COC(=O)Cn1cnc2ccccc2c1=O | 3.1% | -0.72 | i
Cc1ccc(S(=O)(=O)CCc2nc3ccccc3s2)cc1 | 1.5% | nt | i
COc1ccc(CN2C(=O)CN=C2Nc2ccc(C)cc2C)cc1 | 3.8% | -0.49 | i
CCOC(=O)Nc1nnc(-c2cccc(OC)c2)s1 | -2.3% | 1.47 | i
CC(Sc1nnc(C(C)N(C)C)n1-c1ccc(Cl)cc1)C(=O)Nc1ccc2c(c1)OCO2 (stereo unspecified) | -1.2% | nt | i

# Next part
mol | Hsc70 | WNV protease inh | MT1-MMP reporter
COc1ccc(C(=O)NN(C)c2nc(-c3ccccc3)cc(C)c2S(C)(=O)=O)cc1 | -2.2% | nt | i
CCOc1ccccc1NC=C1C(=O)OC(C)(C)OC1=O | 1.2% | 0.02 | i
O=C(NC1CC1)c1cccc(Nc2ccc(-c3ccc4c(c3)OCCO4)nn2)c1 | -1.1% | -0.28 | i
COc1ccc(-c2cc3ccccc3n2CC(O)CN2CCOCC2)cc1 (stereo unspecified) | 0.5% | 0.00046 | i
CN(C)c1oc(COc2ccccc2F)nc1C#N | -2.8% | -0.96 | i
Cc1ccc(C)c(NC2=NCC(=O)N2C2CCCCC2)c1 | 4.4% | nt | i
Cc1ccccc1Oc1ccc(S(=O)(=O)NCCC(=O)O)cc1 | 5.8% | -1.04 | i
O=C(NCCN1CCCC1=O)Nc1ccccc1 | 1.9% | -0.41 | i
CC1CCCN(C(=O)C(C)Sc2nc(-c3ccccc3)cc(C(F)(F)F)n2)C1 (stereo unspecified) | 2.3% | nt | i
Cn1cccc1C(=S)N=P(C1CCCCC1)(N1CCOCC1)N1CCOCC1 | -2.3% | -0.34 | i
COc1cc(C(=O)Nc2ccc(NC(=O)c3ccco3)nc2)cc(OC)c1OC | -0.7% | 0.63 | i
C=CCNc1ncnc2ccc(Br)cc12 | 6.1% | 1.67 | i
COC(=O)c1c(N)sc(C(C)=O)c1C | 0.7% | 1.39 | i
CC(C)CCC1CC(CSC(=N)N)OC1=O (stereo unspecified) | 4.3% | nt | i
COc1ccc2nc3sc(C(=O)NCc4cccs4)c(N)c3cc2c1 | -61.6% | 0.41 | i

# New compounds follow:
mol | Hsc70 | WNV protease inh | MT1-MMP reporter
CNc1oc(-c2ccc(Cl)cc2)nc1C#N | -7.7% | -0.07 | i
CN1CC=C2C(C#N)=C(N)C(C#N)(C#N)C(c3cccc(Cl)c3Cl)C2C1 (stereo unspecified) | 55.9% | 0.88 | i
O=C(NC1CCCc2ccccc21)C1CCCO1 (stereo unspecified) | 2.3% | -0.2 | i
Cc1ccc(OCc2nn3c(-c4ccco4)nnc3s2)cc1 | -2.1% | 0.07 | i
COCCCN1C(=O)C(=O)/C(=C(/O)c2ccc3c(c2)OCCO3)C1c1ccc(C(=O)OC)cc1 (stereo unspecified) | -3.8% | 0.36 | i
CCCNc1nc2c(c(=O)[nH]c(=O)n2C)n1CCCc1ccccc1 | 2.8% | 0.00461 | i
COc1ccc(C(=O)NC(C(=O)NCc2ccccn2)C(C)C)cc1 (stereo unspecified) | -1.9% | -0.24 | i
CCCCCCSc1nc(O)c(C2OC(=O)c3c2ccc(OC)c3OC)c(=O)n1-c1ccccc1 (stereo unspecified) | 5.1% | nt | i
CC1Cc2ccccc2N1C(=O)c1ccnc(C(C)(C)C)c1 (stereo unspecified) | -2.3% | 2.71 | i
COc1ccc(-c2nc3ccncc3[nH]2)cc1OC | 0.8% | nt | i
CCC(C)NC(=O)C1CN(S(=O)(=O)c2ccccc2)CCN1S(=O)(=O)c1ccccc1 (stereo unspecified) | -6.8% | 1.37 | i
Cc1c(C(=O)N2CCC(C)CC2)sc2ncnc(N(C)c3ccccc3)c12 | -0.7% | nt | i
COCCN=C1Sc2nc3c(C)cccc3cc2CN1Cc1ccco1 | 1.3% | nt | i
Cc1cc(-c2ccco2)n(CC(=O)NCc2ccco2)n1 | 0.5% | 0.97 | i
Cc1ccc(N2CC(C(=O)Nc3ccccn3)CC2=O)cc1 (stereo unspecified) | 1.8% | 0.17 | i

# Further compounds:
mol | Hsc70 | WNV protease inh | MT1-MMP reporter
CN(c1ccc(F)cc1)S(=O)(=O)c1ccc2[nH]cc(C(=O)O)c(=O)c2c1 | -7.9% | -1.21 | i
Cc1[nH]c(=O)[nH]c(=O)c1CSc1nnc([C@H](CC(C)C)NC(=O)OC(C)(C)C)o1 | -2.9% | 0.3 | i
N#Cc1nc(COc2ccccc2F)oc1NCCCn1ccnc1 | 4.0% | 0.62 | i
COc1ccccc1N1CCN(CC(O)COc2cccc3ccccc23)CC1 (stereo unspecified) | -4.8% | -0.23 | i
CCc1nc(SCC(=O)c2cc(C)ccc2C)n[nH]1 | -1.9% | 1.58 | i
O=C1CCCCC(=O)N(c2ccccc2)c2ccccc21 | -10.5% | 0.95 | i
N#Cc1nc(-c2ccco2)oc1N1CCN(Cc2ccccc2)CC1 | -10.9% | -0.01 | i
CC(C)CNC(=O)c1ccccc1-c1ccccc1C(=O)O | 2.2% | nt | i
O=C(NCc1ccco1)C1CC2CCC1C2 (stereo unspecified) | -11.9% | nt | i
Nc1c(C2=NCCO2)nnn1Cc1ccccc1 | -2.0% | -0.88 | i
CCOc1ccc(S(=O)(=O)N2CCN(C(=O)c3sccc3C)CC2)cc1 | 0.5% | nt | i
COc1ccccc1N1CCN(C(c2ccc(F)cc2)c2nnnn2C(C)C)CC1 (stereo unspecified) | -1.2% | -1.34 | i
O=C(Nc1nsc(-c2ccccc2)n1)c1cccs1 | -3.6% | -0.45 | i
CN(C)C(=O)Cn1c(SCC(=O)NCc2ccc3c(c2)OCO3)nc2ccccc21 | 2.3% | nt | i
O=C(CN1CCN(c2ccccn2)CC1)NC1CCCC1 | -3.9% | -0.09 | i

# Among those listed so far, these have a tert-butyl group.
mol | Hsc70 | WNV protease inh | MT1-MMP reporter
CC1Cc2ccccc2N1C(=O)c1ccnc(C(C)(C)C)c1 (stereo unspecified) | -2.3% | 2.71 | i
Cc1[nH]c(=O)[nH]c(=O)c1CSc1nnc([C@H](CC(C)C)NC(=O)OC(C)(C)C)o1 | -2.9% | 0.3 | i

# Further entries follow.
mol | Hsc70 | WNV protease inh | MT1-MMP reporter
CCCCN1C(=O)C(CC(=O)NCC)SC1=Nc1ccccc1 (stereo unspecified) | -5.6% | nt | i
Cc1ccccc1-c1nc(CS(=O)(=O)CC(=O)NCc2ccc3c(c2)OCO3)c(C)o1 | 3.5% | -0.1 | i
O=C1CC(N(C(=O)c2ccco2)c2cccc(Cl)c2)C(=O)N1c1cccc(Cl)c1 (stereo unspecified) | -0.3% | nt | i
CC(=O)Oc1ccc(NC(=O)Cc2ccccc2)cc1 | 4.3% | -1.22 | i
CCc1ccccc1OCc1nc2ccc(S(=O)(=O)N3CCOCC3)cc2[nH]1 | 0.7% | nt | i
O=C(CSc1nnc2scc(-c3ccccc3)n12)Nc1nsc(-c2ccccc2)n1 | 8.0% | -0.19 | i
COc1ccc(C(C[N+](=O)[O-])c2c(-c3ccccc3)cc3ccccn23)cc1 (stereo unspecified) | -5.1% | nt | i
Cc1ccc(-n2ncc3c(=O)n(Cc4ccccn4)cnc32)cc1C | 0.0% | 0.03 | i
CCOc1ccccc1OCC(=O)Nc1ccc(N2CCCCC2)cc1 | 2.9% | 0.4 | i
Cc1nnsc1C(=O)Nc1cc(Cl)ccc1Cl | -3.0% | nt | i
O=C(Nc1ccc(F)c(F)c1)NC1CCCCC1 | 7.0% | 0.81 | i
Cc1ccnc(SCC(=O)Nc2sc3c(c2C#N)CCC(C(C)(C)C)C3)n1 (stereo unspecified) | 2.1% | nt | i
CCC1C(=O)N(c2nc(C)cc(C)n2)N=C1C (stereo unspecified) | 1.6% | nt | i
O=S(=O)(Nc1ncnc2sc3c(c12)CCC3)c1ccc2ccccc2c1 | -3.1% | nt | i
COc1ccc(-c2cc(C(=O)N3CCCCC3)no2)cc1OC | -2.8% | -0.49 | i

# Other results.
mol | Hsc70 | WNV protease inh | MT1-MMP reporter
CC(C)Oc1ccc(CC2CC(=O)NC2=O)cc1 (stereo unspecified) | -1.0% | -0.24 | i
CCCCCSc1nc2c(c(=O)[nH]c(=O)n2C)n1C | 0.9% | 0.99 | i
CC(C)NC(=O)COc1ncnc2sccc12 | -3.2% | nt | i
COc1ccc(Cl)cc1C(=O)CSc1nnnn1C1CCCC1 | 0.0% | -0.85 | i
Nc1n[nH]c(-c2ccc(F)cc2)n1 | -2.4% | 0.25 | i
CCC(CCC(=O)Nc1ccc(S(N)(=O)=O)cc1)C(=O)O (stereo unspecified) | 0.8% | nt | i
O=C(c1ccco1)N1CCN(C(=O)C2CC(c3ccc(F)cc3)=NO2)CC1 (stereo unspecified) | -0.9% | 0.28 | i
Cc1nc2ccccc2c(=O)n1CCN1CCOCC1 | -2.7% | nt | i
CCOc1ccccc1C(=O)NC(C(=O)OCC(=O)Nc1nnc(-c2ccccc2)o1)C(C)C (stereo unspecified) | -3.7% | 0.89 | i
O=C(NCc1ccccc1)C1CCCN(S(=O)(=O)c2cccc3nonc23)C1 (stereo unspecified) | 4.3% | nt | i
C=C(C)CSc1nc2c(cc1C#N)CCC2 | -4.8% | 1.07 | i
COc1ccc(-c2onc(C)c2-c2ccc(C(=O)OC(C)C)o2)c(O)c1 | 2.2% | -0.14 | i
NCCCCCNC(=O)/C=N\O | -4.0% | -0.44 | i
CCCOc1ccc(Cc2nn[nH]n2)cc1 | -4.1% | 0.88 | i
CC(C)c1nc(SCC(=O)Nc2cccc(S(N)(=O)=O)c2)n[nH]1 | -4.3% | nt | i

# Arranged by molecular weight (descending): part of the list above.
mol | Hsc70 | WNV protease inh | MT1-MMP reporter
O=C(c1ccco1)N1CCN(C(=O)C2CC(c3ccc(F)cc3)=NO2)CC1 (stereo unspecified) | -0.9% | 0.28 | i
CCC(CCC(=O)Nc1ccc(S(N)(=O)=O)cc1)C(=O)O (stereo unspecified) | 0.8% | nt | i
Nc1n[nH]c(-c2ccc(F)cc2)n1 | -2.4% | 0.25 | i

# New compounds follow:
mol | Hsc70 | WNV protease inh | MT1-MMP reporter
c1ccc2nc3c(nc2c1)CCc1nonc1-3 | 2.9% | -0.73 | i
Cc1ccsc1C(=O)OCc1csc(-c2ccccc2)n1 | 0.6% | -0.58 | +
O=C(NCC1CCCO1)c1nn2cccnc2c1Cl (stereo unspecified) | 5.9% | -0.27 | i
COc1ccc(OC)c(Nc2nc(-c3sc(N)nc3C)cs2)c1 | -4.0% | -0.61 | i
CC(=O)Oc1ccc(C(=O)Nc2nccs2)cc1 | -1.4% | 0.97 | i
Cc1nc(-c2cccc(NS(=O)(=O)c3cccc4ccccc34)c2)cs1 | 1.5% | nt | i
COc1ccccc1CNC(=O)COC(=O)c1ccc(S(=O)(=O)N2CCCC2)cc1 | -7.0% | 0.05 | i
Cc1nn(-c2ccccc2)c(C)c1C(=O)OCC(=O)NC(=O)NC1CCCC1 | -3.7% | nt | i
COc1ccc(NC(=O)CS(=O)CC(=O)NCc2cccc(C(F)(F)F)c2)cc1 (stereo unspecified) | 1.3% | 0.39 | i
CC1CN(c2oc(-c3ccco3)nc2S(=O)(=O)c2ccccc2)CC(C)O1 (stereo unspecified) | -7.2% | -2.05 | i
COc1ccc(N2CCN(C(=O)c3ccc(CNc4c(N5CCOCC5)c(=O)c4=O)cc3)CC2)cc1 | 1.5% | 1.33 | i
CN(C)CCN1C(=O)C(O)=C(C(=O)c2ccco2)C1c1ccccc1F (stereo unspecified) | -0.7% | 0.61 | i
COc1ccc(C2CC(c3cccc(C)c3)n3nc(N)nc3N2)cc1 (stereo unspecified) | 4.9% | -0.75 | i
Cc1onc(-c2ccccc2Cl)c1C(=O)N1CCc2ccccc21 | -0.3% | -0.66 | i
Cn1nnnc1SCCNCC#Cc1ccccc1 | -0.3% | -1.02 | i

# Remaining list, next part
mol | Hsc70 | WNV protease inh | MT1-MMP reporter
COc1cc(-c2nnc(SCC(=O)c3ccccc3)o2)cc(OC)c1OC | -4.1% | -0.64 | i
COCCN1Cc2cccc(C(=O)NC3CCCCCC3)c2C1=O | -2.8% | 0.81 | i
CCn1c(Cc2ccccc2)nnc1SCC(=O)Nc1cc(C)on1 | 3.5% | 0.53 | i
Cc1cc(NS(=O)(=O)c2ccc(NC(=O)CCc3ccccc3)cc2)no1 | -4.1% | 0.05 | i
COc1ccc(N2C(=O)NC3CC2(C)Oc2ccc(Cl)cc23)cc1OC (stereo unspecified) | 1.2% | -0.76 | i

# The list is partial (hit frequency here may not be typical).
